Bioassay records (PubChem)
TRPV1 PAM: human TRPV1 potentiation. Q8NER1. TRPV1-expressing cells, Fluo-8 calcium influx, capsaicin EC20 potentiation; host cell line not named in the record; control for the full effect not named in the record. actives 0.02% (n = 320,000). potentiation, % at 8.33 µM; active means potentiation above 80%; inconclusive means 30% to 80%; inactive means below 30%; note: 0% is about no effect
Target sequence (Q8NER1 whole entry, looked up): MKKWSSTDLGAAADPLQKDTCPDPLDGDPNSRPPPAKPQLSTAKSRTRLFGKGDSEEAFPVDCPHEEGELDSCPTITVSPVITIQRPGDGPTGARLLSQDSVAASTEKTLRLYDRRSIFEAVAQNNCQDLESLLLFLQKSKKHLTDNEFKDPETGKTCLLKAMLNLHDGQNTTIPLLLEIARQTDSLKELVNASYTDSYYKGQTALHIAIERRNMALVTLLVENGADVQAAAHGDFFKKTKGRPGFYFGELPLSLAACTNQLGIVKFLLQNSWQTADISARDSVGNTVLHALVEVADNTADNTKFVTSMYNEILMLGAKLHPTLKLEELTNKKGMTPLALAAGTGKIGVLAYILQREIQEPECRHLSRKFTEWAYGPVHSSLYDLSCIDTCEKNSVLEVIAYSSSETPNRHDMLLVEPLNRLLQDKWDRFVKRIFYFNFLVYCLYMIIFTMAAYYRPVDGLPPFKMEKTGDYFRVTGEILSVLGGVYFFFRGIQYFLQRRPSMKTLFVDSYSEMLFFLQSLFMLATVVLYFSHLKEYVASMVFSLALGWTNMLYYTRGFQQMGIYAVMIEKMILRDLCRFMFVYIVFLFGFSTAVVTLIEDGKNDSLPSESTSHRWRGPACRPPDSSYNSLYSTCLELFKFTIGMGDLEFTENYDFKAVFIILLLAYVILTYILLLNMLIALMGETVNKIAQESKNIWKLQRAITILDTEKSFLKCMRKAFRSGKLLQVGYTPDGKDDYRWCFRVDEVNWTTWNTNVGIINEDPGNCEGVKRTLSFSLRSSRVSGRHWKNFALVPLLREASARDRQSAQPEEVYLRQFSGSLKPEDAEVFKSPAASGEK
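TRPV1-expressing cells were cultured overnight at 35.5C and loaded with Fluo-8 calcium dye for 40 to 90 min at room temperature. After a 10 s baseline, compound was added and calcium influx was read kinetically for 3 min (ex 480/em 520 nm).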
Six1-Eya2 blk: inhibitors of human Six1/Eya2 interaction; Q15475+O00167; AlphaScreen GST-Six1/His-Eya2 binding, biochemical; active compounds read low; control for the full effect not named in the record; activity change, % (concentration not given with the values); actives 0.56% (n = 360,000); in the data active = activity change below about -65%; inconclusive = about -30% to -65%; inactive = above about -30%; note: % is set by controls: 0 for no effect and ±100 for the full control effect
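Homogeneous AlphaScreen proximity assay pairing GST-Six1 with His-tagged Eya2 (added as 5X mix: 250 nM and 500 nM) in 50 mM Tris pH 8.0, 300 mM NaCl, 1 mM TCEP. Glutathione donor and nickel acceptor beads; 1 h, 37 °C, dark.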
TRPML1 blocker: inhibitors of human TRPML1 channel | TRPML1-inducible cells, Ca2+ dye fluorescence, FDSS; active compounds read low; inhibition of EC80 agonist-evoked calcium signal | activity change, negative = inhibition, % (concentration not given with the values) | actives 0.02% (n = 390,000) | Q9GZU1; in the data active means activity change below about -50%; inconclusive means about -30% to -50%; inactive means above about -30%;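 note: stimulus is agonist 54-4 at its EC80 concentration; % is set by controls: 0 for no effect and ±100 for the full control effect; the text of the record puts the active cut at -80%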
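Tet-induced TRPML1-DL cells loaded with Ca8 no-wash calcium dye were read kinetically on FDSS. Compound addition was followed by EC80 agonist 54-4 (4 uM final); inhibition was read over 110 s.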
CtBP-E1A blk: blocks the CtBP interaction with E1A; AID 651724; actives 0.49% (n = 340,000); activity change, % (test concentration not listed); AlphaScreen GST-E1A/His-CtBP binding, 1536-well; active compounds read low; control for the full effect not named in the record; in the data active means activity change below about -65%; inconclusive means about -30% to -65%; inactive means above about -30%; note: % is set by controls: 0 for no effect and ±100 for the full control effect
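GST-E1A and His-tagged CtBP (125 nM each as 5X stock) were preincubated with pin-transferred compound for 2 h at 37 °C in the dark, then glutathione donor and nickel acceptor beads were added for 1 h before AlphaScreen reading.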
D2 potentiator: potentiates the human D2 dopamine receptor allosterically | P14416 | DiscoveRx D2 beta-arrestin cells, luminescence, 90 min; 100% = 57 uM dopamine signal | potentiation, % (no concentration beside the values) | actives 0.23% (n = 360,000); active = potentiation of 50% or more; inconclusive = 30% to 50%; inactive = 30% or less;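 note: compound concentration not given in the record; tested on top of an EC20 dose of dopamine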
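D2 cells co-treated with compound plus 50 nM dopamine (EC20) for 90 min at 37 deg C to detect potentiation. Beta-arrestin recruitment was read as enzyme-fragment luminescence after 1 h at ambient temperature. Full response was set by 57 uM dopamine.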
TRPML1 ag: activates the human TRPML1 channel; AID 624414; Q9GZU1; actives 0.12% (n = 410,000); activation, % (test concentration not listed); TRPML1-expressing cells, Ca2+ dye fluorescence, FDSS; host cell line not named in the record; reference of the full effect not given here; in the data active = activation above about 50%; inconclusive = about 30% to 50%; inactive = below about 30%; note: 0% is about no effect; the text of the record puts the active cut at 80%
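In this qHTS format, compounds were pin-transferred onto Ca8-dye-loaded TRPML1-DL cells induced with Tet overnight, and intracellular Ca2+ fluorescence was recorded kinetically for 110 s after a 10 s baseline. A subsequent 4uM final 54-4 (EC80) addition followed by a second 110 s read served as the antagonist phase.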
An asterisk follows results filed as active; ? = inconclusive; / = no result given; & = joins results of further samples.

Letter code: A = TRPV1 PAM; B = Six1-Eya2 blk; C = TRPML1 blocker; D = CtBP-E1A blk; E = D2 potentiator; F = TRPML1 ag
> COc1ccc(CNC(=O)C(C)OC(=O)C23CC4CC(CC(O)(C4)C2)C3)cc1 (stereo not drawn)
  A: 7; B: 2; C: -19; D: -11; E: 2; F: 0.2
> CCC(Sc1nc(-c2cccc(OC)c2)c(C#N)c(=O)[nH]1)C(=O)Nc1nnc(C(C)C)s1 (stereo not drawn)
  A: 11; B: -9; C: -25; D: -2; E: -4; F: -0.6
> CCc1nn(CC(=O)N2CCN(c3cc(C)ccc3C)CC2)c(=O)c2cc3occc3n12
  A: -28; B: 4; C: -18&-7; D: 2; E: -5; F: 1.1&-0.9
> CN(C)/C(Cn1cncn1)=C1/N=C(c2c(F)cccc2F)OC1=O
  A: 18; B: -5; C: -3; D: /; E: -3; F: -0.4
> COc1ccccc1/C=C/C=N/NC(=O)CCn1cnc2ccccc21
  A: 3; B: -22; C: -22; D: ?; E: -3; F: 1.9
> Cn1c(=O)c(=O)n(C)c2cc(S(=O)(=O)CCC(=O)N3CCCCC3)ccc21
  A: -6; B: -1; C: -7; D: 2; E: -9; F: 0.0
> Cc1[nH]nc(Nc2ccccc2)c1[N+](=O)[O-]
  A: -5; B: 3; C: 41; D: 0; E: -15; F: 0.3
> COc1ccccc1CN(Cc1cc2cc3c(cc2[nH]c1=O)OCCO3)Cc1nnnn1Cc1ccco1
  A: 3; B: 0; C: 2; D: 41; E: -1; F: 7.4
> CCNC(=O)C1(C)CCCN(Cc2ccc(-c3ccccc3)o2)C1 (stereo not drawn)
  A: /; B: -7; C: /; D: -5; E: -12; F: -1.0
> c1ccc2c(c1)CC(CN1CCNCC1)O2 (stereo not drawn)
  A: -5; B: 3; C: -1; D: -2; E: -6; F: -0.3
> Cc1cc(C(=O)NC2CCCc3c2cnn3-c2cccc(C)c2C)n(C)n1 (stereo not drawn)
  A: -6; B: 14; C: -1; D: 8; E: -6; F: 1.3
> COCCn1nnnc1CN1CCOCC1
  A: 14; B: 4; C: 22; D: 9; E: 14; F: 0.5
> Cc1ccsc1C(=O)OCC(=O)NCc1ccc2c(c1)OCO2
  A: -11; B: 12; C: 19; D: -1; E: 6; F: -0.1
> CC1CN(C(=O)CCC(=O)N2CCN(c3ccccn3)CC2)c2ccccc2O1 (stereo not drawn)
  A: 10; B: 4; C: 5; D: 3; E: -3; F: -0.3
> CC1CCc2sc(C(=O)NCc3ccccn3)cc2C1 (stereo not drawn)
  A: -28; B: 6; C: 11; D: 12; E: -8; F: -0.5
> C/C(CC(=O)Nc1c(C)cc(C)cc1C)=N\NC(=O)Cc1ccccc1
  A: -3; B: 4; C: ?; D: -15; E: 0; F: 2.0
> O=C(CCN1C(=O)c2cccc3cccc(c23)C1=O)Nc1ccon1
  A: -2; B: 176; C: 12; D: 4; E: 3; F: 0.2
> O=C(CCC1CCCN(C(=O)c2ccc3[nH]ccc3c2)C1)N1CCN(c2ccccn2)CC1 (stereo not drawn)
  A: 11; B: 3; C: 9; D: -4; E: -2; F: 0.9
> CC(C)n1c(-c2ccncc2)n[nH]c1=S
  A: -14; B: 9; C: -19; D: -4; E: -6; F: -0.1
> COc1ccc(-c2csc(NC(=O)c3cccc(N4C(=O)CCC4=O)c3)n2)cc1C
  A: 7; B: 0; C: -6; D: 8; E: 10; F: 0.4
> CC(=O)NCCNc1nc(NC(C)C)nc2cc(-c3ccccc3)sc12
  A: /; B: -26; C: /; D: -22; E: -9; F: -0.7
> CC(C)/C(C=O)=C(/NC1CCCCC1)c1ccccc1
  A: /; B: -25; C: -17; D: -4; E: -4; F: 22
> COCCCn1c(=O)/c(=C\c2ccc(OC(F)F)c(OC)c2)s/c1=C(/C#N)C(=O)NCCOC
  A: 3; B: 4; C: 26; D: 3; E: 2; F: 1.5
> O=C(NCc1ccc(-c2csnn2)cc1)C1CC1
  A: -1; B: -5; C: 2; D: 10; E: -1; F: 1.2
> O=C(NCCCN=C1NS(=O)(=O)c2ccccc21)c1ccncc1
  A: 0; B: 1; C: 8; D: 8; E: -2; F: 1.1
> CCN(CC(=O)Nc1ccc2c(c1)OCCO2)CC(=O)Nc1ccc2c(c1)OCO2
  A: -17; B: -2; C: 7; D: 6; E: -15; F: -0.7
> O=C(NCc1csc(-c2cccs2)n1)c1ccccc1
  A: -3; B: -2; C: -1; D: /; E: -23; F: 0.1
> Cc1c(CCOC(=O)C23CC4CC(CC(C)(C4)C2)C3)sc[n+]1CC(=O)c1ccccc1
  A: -3; B: -1; C: -15; D: 2; E: 3; F: 1.3
> COc1ccc(N(CC(=O)Nc2ccc(OC)c(OC)c2)S(=O)(=O)c2ccccc2)cc1Cl
  A: 21; B: -14; C: -19; D: -22; E: -3; F: 2.1
> C=C1C[C@H](O[C@@H]2O[C@H](CO)[C@@H](O)[C@H](O)[C@H]2O)[C@@H]2[C@H](OC(=O)[C@H]2C)[C@H]2[C@H](C)[C@@H](O)C[C@@H]12
  A: /; B: -6; C: 31; D: 3; E: -28; F: -0.6

Single records, as listed above:
Results for COCCCn1c(=O)/c(=C\c2ccc(OC(F)F)c(OC)c2)s/c1=C(/C#N)C(=O)NCCOC = TRPV1 PAM: 3; Six1-Eya2 blk: 4; TRPML1 blocker: 26; CtBP-E1A blk: 3; D2 potentiator: 2; TRPML1 ag: 1.5
Results for CC(C)/C(C=O)=C(/NC1CCCCC1)c1ccccc1 = TRPV1 PAM: /; Six1-Eya2 blk: -25; TRPML1 blocker: -17; CtBP-E1A blk: -4; D2 potentiator: -4; TRPML1 ag: 22
Results for O=C(NCc1ccc(-c2csnn2)cc1)C1CC1 = TRPV1 PAM: -1; Six1-Eya2 blk: -5; TRPML1 blocker: 2; CtBP-E1A blk: 10; D2 potentiator: -1; TRPML1 ag: 1.2

More entries:
Letter code: A = TRPV1 PAM; B = Six1-Eya2 blk; C = TRPML1 blocker; D = CtBP-E1A blk; E = D2 potentiator; F = TRPML1 ag
> O=C(NCC(c1ccco1)N1CCc2ccccc21)C(=O)Nc1ccc(F)cc1F (stereo not drawn)
  A: ?; B: -17; C: -17; D: -8; E: 30; F: 0.3
> COc1ccc(CCNc2nc(-c3ccc(F)cc3)c(CC(=O)O)s2)cc1OC
  A: 12; B: -10; C: -12; D: 2; E: -6; F: -0.5
> COc1ccc(NC(=S)NC(=O)c2cccnc2)cc1
  A: -9; B: -3; C: 12; D: -13; E: -27; F: -0.4
> O=C(CCCSc1ccc(Cl)cc1)Nc1ccccc1O
  A: 2; B: -15; C: -26; D: 1; E: 1; F: 2.0
> CC1(C)CC(=O)C(C=Nc2ccc(N)cc2)=C(O)C1
  A: -1; B: -8; C: 7; D: -3; E: 0; F: -0.1
> CN(N)c1nc(C(F)(F)F)nc2ccccc12
  A: -8; B: -1; C: -5; D: 0; E: 3; F: 1.5
> CC(NC(=O)COc1cccc(Br)c1)C(=O)O (stereo not drawn)
  A: -10; B: 10; C: -1; D: -7; E: -6; F: 0.2
> CCc1cccc(CC)c1NC(=S)Nc1ccccc1
  A: -1; B: 4; C: 6; D: 3; E: -7; F: 0.1
> Cc1c(NC(=O)c2ccc(-c3ccc([N+](=O)[O-])cc3Cl)o2)c(=O)n(-c2ccccc2)n1C
  A: 7; B: 4; C: 19; D: -8; E: -3; F: 0.0
> CC(C)(C)C(=O)Nc1nc(NC(=O)C(C)(C)C)nc(-c2ccccc2Cl)n1
  A: -14; B: -13; C: -7; D: 5; E: -5; F: -0.5
> COc1ccc(C(=O)N[C@H](C(=O)Nc2ccc(OC)nc2)C(C)C)cc1
  A: -17; B: 1; C: 7; D: -3; E: -7; F: -0.1
> Cc1ccc2c(c1)sc1nc(=O)n(-c3ccc(Cl)c(Cl)c3)c(=O)n12
  A: -8; B: 2; C: 14&17; D: -1; E: -4; F: -0.8&-1.1
> Cc1cc(C)nc(SCCC(=O)N(C)C)n1
  A: -1; B: 2; C: 20; D: -7; E: 3; F: 0.4
> CCOC(=O)c1nnn(CC(=O)N2N=C(c3ccc(Cl)cc3)CC2c2ccc(OC)cc2)c1C(=O)OCC (stereo not drawn)
  A: 14; B: -13; C: 42; D: 0; E: 5; F: 1.7
> CCCn1nnnc1NCc1ccc(CC)cc1
  A: -27; B: -3; C: 4; D: 2; E: 0; F: -0.7
> CC1CCN(C(=O)c2ccc(S(=O)(=O)NCc3ccco3)cc2)CC1
  A: -18; B: -9; C: ?; D: -5; E: 3; F: 0.4
> COCCCNc1nc2ccccc2[nH]c1=O
  A: 2; B: 0; C: 18; D: 11; E: 5; F: 1.6
> COc1ccc2c(OC)c3ccoc3nc2c1OC
  A: -8; B: -8; C: /; D: -11; E: -41; F: /
> O=C(c1ccc(S(=O)(=O)N2CCOCC2)cc1)N1CCN(c2ccc(F)cc2)CC1
  A: -10; B: -3; C: -4; D: 0; E: -3; F: -0.7
> COc1cccc(C(=O)N(Cc2ccco2)Cc2cc3cccc(C)c3[nH]c2=O)c1
  A: -4; B: -2; C: -4; D: -2; E: -5; F: 0.4
> COc1ccc(-c2noc(CCC(=O)N3CCN(c4ccc(F)cc4)CC3)n2)cc1
  A: /; B: 4; C: -9; D: -24; E: -7; F: -0.6
> COc1ccc(NC(=O)CN(C)C(=O)c2cccc3ccccc23)cc1
  A: 1; B: -3; C: -2; D: 2; E: -6; F: -0.5
> CCOC(=O)c1cc(-c2csc(-c3cccc(Cl)c3)n2)on1
  A: /; B: -3; C: 28; D: 2; E: -15; F: 0.3
> Cc1cccc(NC(=O)Nc2ccc(Cl)c(Cl)c2)n1
  A: -17; B: -6; C: 4; D: 0; E: -7; F: 0.0
> CCOC(=O)C1(CCOc2ccccc2)CCN(Cc2cc(OC)c(O)c(OC)c2)CC1
  A: -19; B: 0; C: -9; D: -21; E: -5; F: 0.2
> NC(=O)CC(NC(=O)Cc1cccc2ccccc12)c1ccc(N2CCN(c3ccc(F)cc3)CC2)c([N+](=O)[O-])c1 (stereo not drawn)
  A: 14; B: -10; C: -1; D: /; E: -5; F: -0.2
> CCN(CC(=O)NCc1cccs1)c1ccc(S(=O)(=O)N2CCCC2)cn1
  A: 1; B: 4; C: -13; D: -2; E: -11; F: -0.5
> Cc1ccc(NC(=O)CSc2nnc(-c3ccco3)c(-c3ccco3)n2)cc1
  A: -40; B: ?; C: 6; D: -22; E: 7; F: -0.7
> CCS(=O)(=O)N1CCC(C(=O)Nc2ccc(C(C)=O)cc2)CC1
  A: -4; B: 0; C: 1; D: 13; E: -3; F: 0.1
> Cc1cc(C)c2c(CC(=O)Nc3nccs3)coc2c1
  A: 2; B: 9; C: 23; D: 8; E: -10; F: 0.0
> CCCCn1c(CCNC(=O)c2cccs2)nc2ccccc21
  A: -18; B: 3; C: 9; D: 7; E: -26; F: 0.8
> O=C(Nc1cnc2ccccc2c1)N1CCOCC1
  A: -11; B: 3; C: -6; D: 5; E: -13; F: -0.9

Some of the entries so far, with values under each structure:
The line under a structure holds: TRPV1 PAM	Six1-Eya2 blk	TRPML1 blocker	CtBP-E1A blk	D2 potentiator	TRPML1 ag
CCCCn1c(CCNC(=O)c2cccs2)nc2ccccc21
 : -18	3	9	7	-26	0.8
O=C(Nc1cnc2ccccc2c1)N1CCOCC1
 : -11	3	-6	5	-13	-0.9
